# NPYLR7 ag: mosquito NPYLR7 agonism | HEK293T NPYLR7/Galpha15, GCaMP6s calcium fluorescence | activation, % at 10 µM | 270,000 compounds, 0.15% hits | AID 1259423; in the data active = activation above about 40%;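 note: 0% = vehicle and 100% = reference agonist at the receptor; some compounds past the cut are filed as inactive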
# NPYLR7 ag max-min: also measured in NPYLR7 ag; calls as there; activation, %; measured here: Max-Min RFU normalised activation; some inactives read as strong as hits;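 span of the calcium signal over five minutes; 0% = vehicle and 100% = native peptide agonist; compound fluorescence can raise it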
# Active calls of the source: *; & = joins results of further samples. Some of the compounds tested (hit frequency here may not be typical).
Structure | NPYLR7 ag | NPYLR7 ag max-min
Cn1ccc(C(=O)NC2(C(=O)O)CCCCC2)cc1=O | 4 | 2
CCOC(=O)C1=C(O)/C(=C\c2ccc(O)c([N+](=O)[O-])c2)SC1=Nc1ccc(OC)cc1 | 11 | 10
Cc1ccc(S(=O)(=O)CCc2nnc(NC(=O)c3ccccc3)s2)cc1 | 5 | 3
Cc1cc(O)cc(=O)n1CCCC(=O)O | 2 | 12
COc1cc(Br)c(CC(=O)N(C)CC(=O)Nc2c(C)cccc2C)cc1OC | 7 | 2
Cc1cccc(-n2c(Cc3ccccc3)n[nH]c2=O)c1 | 5 | 3
Cc1ccc(C2=N/C(=C\C(Cl)=C\c3ccccc3)C(=O)O2)cc1 | 1 | -5
COC(=O)C(c1ccc(F)cc1Cl)C1C=CC(NC(=O)C(c2ccccc2)c2ccccc2)C1 (stereo unspecified) | 3 | 1
CN(C)S(=O)(=O)c1ccc(-c2nc(C#N)c(NCc3ccc4c(c3)OCO4)o2)cc1 | 1 | 4
COCC(=O)Nc1c(C)nc2sccn2c1=O | 8 | 0
CCOC(=O)c1csc(CSc2nnc(-c3ccccc3F)n2-c2ccc(C)cc2)n1 | 13 | 17
COc1cc(S(=O)(=O)n2ccc(C)n2)ccc1Cl | -8 | -10
Cc1ccc(C)c(NC(=O)CN(C)C(=O)CN(C)Cc2ccc(C(F)(F)F)cc2)c1 | 0 | -1
CCCC(=O)N1CCc2ccccc2C1c1ccc(Cl)cc1 (stereo unspecified) | 22 | 9
COC(=O)CCC(=O)N1CCN(c2nccc(-c3cccc(C(F)(F)F)c3)n2)CC1 | 4 | 0
Cc1ccc(C(=O)Nc2sc3c(c2C(=O)N2CCOCC2)CCC(C)C3)cc1 (stereo unspecified) | -7 | -5
COc1ccc2[nH]cc(C(CC(=O)NCC3COc4ccccc4O3)c3ccc(C)nc3Cl)c2c1 (stereo unspecified) | 16 | 8
CCOC(=O)NN=C(/C=C/c1ccccc1)/C=C/c1ccccc1 | -1 | 24
Cc1cc(C)n2c(SCCOc3cc(Cl)ccc3Cl)nnc2n1 | 7 | 3
Cc1c(C(=O)N2CCN(C(=O)CCC3CCCC3)CC2)cc(-c2ccccc2)n1-c1ccc(F)cc1F | -2 | 3
COc1ccc(CCN(C)C(=O)c2cc(-c3ccc(Cl)cc3)n(-c3ccccc3OC)c2C)cc1OC | -3 | -1
O=C(COC(=O)C=Cc1ccco1)NC1CCCC1 | -1 | 1
COc1ccc(CC(N)c2csc(Nc3cccc(OC)n3)n2)cc1 (stereo unspecified) | -7 | -11
COc1ccc(C)cc1C(C)NC(=O)c1cc2ccsc2[nH]1 (stereo unspecified) | 5 | 13
Fc1ccc(C=NNc2ccc3ccccc3n2)c(F)c1 | 6 | 4
COc1ccc(OC)c(C(=O)CSc2nnc(-c3ccccc3Cl)n2-c2ccccc2Cl)c1 | 22 | 31
COCCNC(=O)Cn1nc2c(c1NC(=O)c1ccc(Cl)cc1)CSC2 | -3 | 2
Cn1c(SCCCC(=O)c2ccccc2)nc2ccsc2c1=O | -2 | -4
CCC(Cn1ccnc1)NC(=O)c1ccc(=O)[nH]c1 (stereo unspecified) | 7 | 6
C=CCn1c(SCC(=O)Nc2ccccc2F)nc2scc(-c3ccc(C)o3)c2c1=O | 11 | 3
Cc1cccc(Nc2cc(C)nc(-n3nc(C)cc3C)n2)c1 | 5 | 6
O=C(CSc1nc2ccccc2[nH]1)NC1CCCCC1 | -5 | -6
COc1ccc(/C=C2\C=C(c3ccccc3)N(c3ccc(O)cc3)C2=O)cc1Br | 0 | 4
COCC(=O)NC(C)c1nnc(SCc2cccc(OC)c2)n1-c1ccc(C)cc1 (stereo unspecified) | -4 | -4
CC(c1cccc(-c2cc(O)cc(C(=O)O)c2)c1)N(C)C (stereo unspecified) | -2 | -5
O=C(CCCSc1ccccc1)Nc1nccs1 | -1 | 6
Cc1ccnc(SCC(=O)NC(c2ccc(F)cc2)c2ccc(SCc3ccccc3)cc2)n1 (stereo unspecified) | 4 | -3
CNC(=O)Cn1nc(C2CC2)c2cnn(-c3ccc(F)cc3)c2c1=O | 6 | 5
COCC(C)(NC(=O)c1cc(Cl)c(-n2cccc2)cc1OC)C(N)=O (stereo unspecified) | 1 | 0
CCOC(=O)[C@H]1C[C@@H]2O[C@H]1[C@H]1CN(C(=O)OCCOC)C[C@H]1[C@@H]2O | 9 | 14
CC(C)(C)OC(=O)N1CCCCC1COC(=O)C1CCC(=O)NC1 (stereo unspecified) | -1 | -2
Cn1nnc2c(=O)n(Cc3ccccc3Cl)cnc21 | 1 | 3
Cc1cccc(OCc2ccc(-c3nc(C#N)c(NCC4CCCO4)o3)o2)c1 (stereo unspecified) | -1 | 3
Cc1ccc2nc(C)c(NC(=O)c3cccnc3Cl)c(=O)n2c1 | 5 | 2
CC(=O)c1oc2ccccc2c1NC(=O)CSC1CCCC1 | 3 | 0
COCCN1CC(Cn2ccnc2-c2ccccc2SC)CC1=O (stereo unspecified) | -10 | -14
Nc1nc(Cl)cc(N(Cc2ccco2)Cc2ccco2)n1 | 0 | 11
CC(C)CN(Cc1cccn1Cc1ccccc1Cl)C(=O)CN(C(=O)Nc1ccccc1F)C(C)C | 1 | 5
CC(C(=O)NC1CC1)n1c(=O)n(Cc2ccccc2)c(=O)c2ccccc21 (stereo unspecified) | -2 | -1
CCN(CC)Cc1cnc2c(C(=O)NCc3cccc4[nH]ccc34)cnn2c1 | 20 | 15

# (cont.)
Structure | NPYLR7 ag | NPYLR7 ag max-min
O=C(CCC1CCCC1)NC(Cc1ccccc1)C(=O)Nc1nnc(-c2ccc(Br)cc2)s1 (stereo unspecified) | 10 | 4
CC(=O)N1N=C(c2ccccc2)CC1c1ccc(Cl)cc1 (stereo unspecified) | -10 | -19
CCc1cccc(NC(=O)Cn2nc(SC)c(-c3nc(-c4ccc(OC)cc4)no3)c2N)c1 | 2 | -5
CCN(CC)C(=O)[C@@H]1C[C@@H](N)CN1Cc1cnn(-c2ccccc2F)c1 | 10 | 2
Cc1ccc(-n2nc(-c3ccc(C)o3)cc2C(=O)NCc2cccc(C(F)(F)F)c2)c(C)c1 | -7 | 1
CCN(CC(O)CN1CCOCC1)CC1CC(c2ccccc2)=NO1 (stereo unspecified) | -3 | 3
CCn1c(C2CCN(S(=O)(=O)N3CCCC3)CC2)n[nH]c1=O | 0 | -2
CCc1cnc(C)nc1-c1cccc(-n2cccn2)c1 | -5 | -5
CCCc1nc(N2CCCN(C(=O)Nc3ccc(C)cc3C)CC2)c2c(-c3cccc(C(F)(F)F)c3)noc2n1 | 15 | 2
CC(C)S(=O)(=O)N(C)C(=O)c1cccc(OC2CCCC2)c1 | 10 | 5

# Ordered by length of the SMILES (descending): 23 of the compounds above.
Structure | NPYLR7 ag | NPYLR7 ag max-min
CCCc1nc(N2CCCN(C(=O)Nc3ccc(C)cc3C)CC2)c2c(-c3cccc(C(F)(F)F)c3)noc2n1 | 15 | 2
CCOC(=O)[C@H]1C[C@@H]2O[C@H]1[C@H]1CN(C(=O)OCCOC)C[C@H]1[C@@H]2O | 9 | 14
Cc1ccc(-n2nc(-c3ccc(C)o3)cc2C(=O)NCc2cccc(C(F)(F)F)c2)c(C)c1 | -7 | 1
CC(C)CN(Cc1cccn1Cc1ccccc1Cl)C(=O)CN(C(=O)Nc1ccccc1F)C(C)C | 1 | 5
CCc1cccc(NC(=O)Cn2nc(SC)c(-c3nc(-c4ccc(OC)cc4)no3)c2N)c1 | 2 | -5
O=C(CCC1CCCC1)NC(Cc1ccccc1)C(=O)Nc1nnc(-c2ccc(Br)cc2)s1 (stereo unspecified) | 10 | 4
Cc1ccnc(SCC(=O)NC(c2ccc(F)cc2)c2ccc(SCc3ccccc3)cc2)n1 (stereo unspecified) | 4 | -3
CCN(CC)C(=O)[C@@H]1C[C@@H](N)CN1Cc1cnn(-c2ccccc2F)c1 | 10 | 2
COc1ccc(/C=C2\C=C(c3ccccc3)N(c3ccc(O)cc3)C2=O)cc1Br | 0 | 4
COCC(=O)NC(C)c1nnc(SCc2cccc(OC)c2)n1-c1ccc(C)cc1 (stereo unspecified) | -4 | -4
CCN(CC)Cc1cnc2c(C(=O)NCc3cccc4[nH]ccc34)cnn2c1 | 20 | 15
COCC(C)(NC(=O)c1cc(Cl)c(-n2cccc2)cc1OC)C(N)=O (stereo unspecified) | 1 | 0
CNC(=O)Cn1nc(C2CC2)c2cnn(-c3ccc(F)cc3)c2c1=O | 6 | 5
CCn1c(C2CCN(S(=O)(=O)N3CCCC3)CC2)n[nH]c1=O | 0 | -2
CC(C)S(=O)(=O)N(C)C(=O)c1cccc(OC2CCCC2)c1 | 10 | 5
Cc1ccc2nc(C)c(NC(=O)c3cccnc3Cl)c(=O)n2c1 | 5 | 2
CC(c1cccc(-c2cc(O)cc(C(=O)O)c2)c1)N(C)C (stereo unspecified) | -2 | -5
CCN(CC(O)CN1CCOCC1)CC1CC(c2ccccc2)=NO1 (stereo unspecified) | -3 | 3
CC(=O)N1N=C(c2ccccc2)CC1c1ccc(Cl)cc1 (stereo unspecified) | -10 | -19
Nc1nc(Cl)cc(N(Cc2ccco2)Cc2ccco2)n1 | 0 | 11
CCc1cnc(C)nc1-c1cccc(-n2cccn2)c1 | -5 | -5
Cn1nnc2c(=O)n(Cc3ccccc3Cl)cnc21 | 1 | 3
O=C(CCCSc1ccccc1)Nc1nccs1 | -1 | 6

# The results go on:
Structure | NPYLR7 ag | NPYLR7 ag max-min
COc1ccc(C)cc1NN=C1C=CC(=O)c2nc(N(C)c3ccc4c(n3)C(=O)C=CC4=NNc3cc(C)ccc3OC)ccc21 | 6 | 8
Cc1oc(C)c(-c2ccoc2)c1C(=O)NCC1CCCCC1 | -8 | -18
O=C(COc1ccccc1)Nc1ccc(N2CCc3ccccc3C2)c(C(=O)NCCc2ccccc2)c1 | 20 | 17
O=C(c1cccc(Cl)c1)N1CCCC(OCc2cccc(Cl)c2)C1 (stereo unspecified) | -5 | -1
CCc1noc(C(C)SCC2CCCCO2)n1 (stereo unspecified) | 11 | 8
O=C(CCc1ccc(S(=O)(=O)N2CCCC2)cc1)Nc1ccc2c(c1)OCCO2 | -1 | -2
CCOC(=O)CCC(=O)N1CCN(C(=O)CCN2CCc3sccc3C2c2ccccc2)CC1C (stereo unspecified) | 5 | -4
COCC(=O)N1CCCN(C(=O)[C@]23CC[C@](C)([C@@H](O)C2)C3(C)C)CC1 | 3 | 2
CCOC(=O)c1ccc(Nc2ncnc3c2nnn3C)cc1 | 4 | 0
O=C1NCCN2CCN(c3nc4ccc(Cl)cc4s3)CC12 (stereo unspecified) | 7 | 5
Cc1ccc2[nH]c(=O)c(CN3CCCN([C@H]4COC[C@@H]4O)CC3)cc2c1 | 4 | -3
COc1ccc(F)c(CNc2nc(N(C)C)nc3c2CCN(C(C)=O)C3)c1F | 12 | -5
O=C(C(Cl)c1ccccc1)N1CCCN(c2nc(C3CCOCC3)nc3c2cnn3-c2ccccc2)CC1 (stereo unspecified) | 20 | 26
CNC(=O)CSc1nc(-c2ccccc2)c(NC(=O)c2c(OC)cccc2OC)s1 | -8 | -14
COc1nc(-c2ccc(C(F)(F)F)cc2)n(-c2ccc(NC(=O)COc3ccc(Cl)cc3)cc2)n1 | -6 | -3
N#Cc1cccnc1N1CCN(C(C(N)=O)c2ccccc2)CC1 (stereo unspecified) | 1 | -1
COC[C@H]1C[C@H]2C[C@@H](O)[C@H](N3CCC(N4CCCC4)CC3)[C@]2(O)CO1 | 11 | 25
CONC(=O)c1csc(-c2cc3ccccc3[nH]2)n1 | 4 | 3
CC(Sc1nncs1)c1ccc(C(F)(F)F)cc1 (stereo unspecified) | 5 | 2
CCC(Nc1cccc(C)c1C)C(=O)Nc1cc(C)on1 (stereo unspecified) | 8&19 | -1&13
COc1ccc(C(O)=C2C(=O)C(=O)N(CCN3CCNCC3)C2c2cccc([N+](=O)[O-])c2)cc1 (stereo unspecified) | 2 | 0
CCOc1ncccc1C(=O)OC(C)C(=O)Nc1ccc(CC)cc1 (stereo unspecified) | 1 | 0
O=C(Nc1ccc(Cl)c2ncsc12)c1cccc(C(F)(F)F)c1 | 2 | 6
Cn1nnc(-c2ccc(C(=O)N3CCCC(Nc4ccccc4)C3)cc2)n1 (stereo unspecified) | -1 | -7
CN1CCN(/N=C\c2ccc(-c3cc(Cl)ccc3Cl)o2)CC1 | -2 | -2
COC(=O)[C@@H](NC(=O)c1cc(COc2ccc3c(c2)CCCC3)on1)C(C)C | 8 | 3
O=C1Nc2ccc(Br)cc2C(=O)N2CCN(C(=O)c3ccccc3)C[C@H]12 | -7 | -16
CCNC(=O)N1CCN(C(C(=O)N(C)Cc2ccco2)C2CCCC2)CC1 (stereo unspecified) | 7 | 4
